Ecoli growth: blocks Escherichia coli growth. OD600, 23 h; hits give low values. OD600 absorbance (concentration not given with the values). 330,000 tested, 0.21% active;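 active means OD600 absorbance below the run mean of sample wells minus 3.6 SD, in any replicate, cut at about 0.56 in these data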;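 further: stock transfer was 300 nL into about 60 µL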
Bfl-1 A1 inh: inhibitors of the anti-apoptotic protein A1, read as caspase activation | MEF A1-2A-BIM cells, Caspase-Glo 3/7 luminescence, 3 h; percent of clofoctol response, vehicle zero | caspase activation, % (concentration not given with the values) | 330,000 tested, 0.066% active | AID 2462;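 active means over half of replicate activation scores above 10%, or exactly half above 10 with the replicate mean above 10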;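 further: wells of about 30 µL received 50 nL stock; many hits fall short of the cut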
UCH37 inh: inhibitors of human deubiquitinating enzyme UCH37 | Q9Y5K5 | purified proteasome/UCH37, Ub-AMC cleavage fluorescence | inhibition, % (concentration not given with the values) | 330,000 tested, 0.33% active;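 active means mean of two replicates above 20%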;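 further: 0% = compound-free wells with enzyme and 100% = wells lacking proteasome; stock transfer was 100 nL into about 20 µL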
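system = Proteasome-associated human UCH37 deubiquitinase | amount = 0.15 nM proteasome as dispensed | medium = pH 7.4 Tris-HCl (50 mM) with ovalbumin, ATP-MgCl2, DTT | incubation = 30 min preincubation with enzyme, 25 min cleavage at room temperature | detection = AMC fluorescence 355/460 nm | read-out basis = percent inhibition | controls = no-proteasome and no-compound wells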
AF4-AF9 inh: inhibitors of human MLL-AF4/AF9 interaction. 350,000 tested, 0.47% active. AlphaScreen, biotin-AF4 peptide binding to FLAG-AF9. inhibition, % at 10 µM;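 active means every replicate reaching a set inhibition limit, whatever the replicate mean, cut at about 25% in these data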;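 further: 0% = plate neutral control median and 100% = total signal loss; the record names both 10 and 1 µM as test concentration; the first replicate is given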
Target sequence (P42568 whole entry, looked up): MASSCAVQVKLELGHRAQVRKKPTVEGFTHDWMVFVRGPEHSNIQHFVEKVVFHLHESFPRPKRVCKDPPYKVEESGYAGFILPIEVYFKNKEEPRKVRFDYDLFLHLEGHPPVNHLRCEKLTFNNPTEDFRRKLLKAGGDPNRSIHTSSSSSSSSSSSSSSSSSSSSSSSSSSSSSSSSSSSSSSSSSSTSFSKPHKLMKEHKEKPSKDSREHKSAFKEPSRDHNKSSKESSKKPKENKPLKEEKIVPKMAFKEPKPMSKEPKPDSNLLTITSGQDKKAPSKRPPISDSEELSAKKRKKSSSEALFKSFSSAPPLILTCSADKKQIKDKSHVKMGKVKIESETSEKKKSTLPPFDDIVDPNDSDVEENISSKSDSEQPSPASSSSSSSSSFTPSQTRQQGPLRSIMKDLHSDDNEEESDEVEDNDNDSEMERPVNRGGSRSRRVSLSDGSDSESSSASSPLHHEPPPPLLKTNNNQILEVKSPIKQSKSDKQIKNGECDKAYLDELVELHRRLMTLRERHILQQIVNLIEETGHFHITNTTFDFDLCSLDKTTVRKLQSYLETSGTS
T cruzi repl: blocks replication of Trypanosoma cruzi. T. cruzi beta-gal in NIH3T3, luminescence, 90 h. inhibition, % (test concentration not listed). 300,000 tested, 1.4% active. AID 1885;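 active means mean inhibition across valid replicates above about 55%, limit read from the data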;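 further: signal also drops with host cell toxicity which is not excluded here; 0% = plate median of DMSO wells and 100% = zero luminescence signal; higher percent means less beta-gal luminescence so fewer parasites; stock transfer was 50 nL into about 50 µL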
Ecoli rRNA inh: selective bacterial rRNA inhibition in E. coli; E. coli WT GFP vs humanized-ribosome RFP mutants, fluorescence, 24 h; hits give low values; DMSO median 0, no signal -100; GFP signal change (wild-type ribosome), % (test concentration not listed); 350,000 tested, 1.6% active;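 active means significant combined selectivity score with lowered wild-type GFP, culture density cut under 30%, mutant RFP and density less affected; inactive means any of these conditions unmet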; further: one replicate is shown; some compounds called inactive have numbers as strong as hits
FGF22 binding: shifts melting point of recombinant human FGF22; Q9HCT0; 340,000 tested, 1.5% active; recombinant FGF22 thermal shift, SYPRO orange fluorescence; percent of sucrose octasulfate shift, DMSO zero; calls only at 9.99 µM;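 active means melting point raised past a set limit in the mean and every replicate; three in four hits are not shown here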
Ecoli rRNA inh OD600: also measured in Ecoli rRNA inh; calls as there; OD600 change, %; measured here: OD600 growth;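 optical density of the mix in the first replicate; 0 = DMSO median and -100 = no signal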
Ecoli rRNA inh RFP: second read-out of Ecoli rRNA inh, no call of its own (marks repeat the call); RFP signal change, %; measured here: RFP humanized mutant strains;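 first replicate; 0 = DMSO median and -100 = no signal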
* = called active by the depositor; i = inactive; · = not tested or not shown; & = joins results of further samples. A portion of the library; count on the stated rates, not on these rows.

# | mol | UCH37 inh | T cruzi repl | Ecoli growth | FGF22 binding | AF4-AF9 inh | Bfl-1 A1 inh | Ecoli rRNA inh RFP | Ecoli rRNA inh OD600 | Ecoli rRNA inh
1 | CCC(=O)O[C@]1(C(=O)SCF)[C@H](C)C[C@H]2[C@@H]3C[C@H](F)C4=CC(=O)C=C[C@]4(C)[C@@]3(F)[C@@H](O)C[C@@]21C | · | 13 | · | · | · | 0.3 | · | · | ·
2 | COc1ccccc1OCCNCC(O)COc1cccc2[nH]c3ccccc3c12 (stereo unspecified) | · | 22 | · | · | · | 0.3 | · | · | ·
3 | COC(=O)NN=Cc1c[n+]([O-])c2ccccc2[n+]1[O-] | -3.7 | · | · | · | · | · | · | · | ·
4 | CCCCCC(=O)O[C@]1(C(C)=O)CCC2C3CCC4=CC(=O)CC[C@]4(C)C3CC[C@@]21C (stereo partly specified) | · | · | 0.69 | · | · | · | · | · | ·
5 | Cc1ccsc1C=CC1=NCCCN1C | · | · | 0.66&0.7 | · | · | · | · | · | ·
6 | CC(=O)N1CC(O)CC1C(=O)O (stereo unspecified) | · | · | 0.67 | · | · | · | · | · | ·
7 | CC(=O)O[C@]1(C(C)=O)CCC2C3C=C(Cl)C4=CC(=O)C5CC5[C@]4(C)C3CC[C@@]21C (stereo partly specified) | · | · | 0.71 | · | · | · | · | · | ·
8 | CC=C(C)C(=O)OC1c2cc3c(c4c2[C@@]2(CO4)C(=O)C(OC)=C(OC)C=C2CC(C)C1C)OCO3 (stereo partly specified) | · | · | 0.67 | · | · | · | · | · | ·
9 | COc1c(O)cc2c(c1O)[C@@H]1OC(CO)C(O)C(O)[C@H]1OC2=O (stereo partly specified) | · | · | · | i | -1.6 | · | · | · | ·
10 | COc1ccc(-n2[nH]c3c(cnc4ccccc43)c2=O)cc1 | · | · | · | i | 0.4 | · | -4.5 | -1 | -4
11 | Cc1cc(C)cc(OCC2CNC(=O)O2)c1 (stereo unspecified) | · | · | · | i | 1.4 | · | 0.2 | 18 | 17
12 | Nc1c2c(nc3ccccc13)CCCC2O (stereo unspecified) | · | · | · | i | 0.4 | · | 0.5 | 14 | 4
13 | O=C1Cc2c([nH]c3ccc([N+](=O)[O-])cc23)-c2ccccc2N1 | · | · | · | i | 0.3 | · | 0.1 | -24 | -13

Excerpt, nos. 4–5
# | mol | UCH37 inh | T cruzi repl | Ecoli growth | FGF22 binding | AF4-AF9 inh | Bfl-1 A1 inh | Ecoli rRNA inh RFP | Ecoli rRNA inh OD600 | Ecoli rRNA inh
4 | CCCCCC(=O)O[C@]1(C(C)=O)CCC2C3CCC4=CC(=O)CC[C@]4(C)C3CC[C@@]21C (stereo partly specified) | · | · | 0.69 | · | · | · | · | · | ·
5 | Cc1ccsc1C=CC1=NCCCN1C | · | · | 0.66&0.7 | · | · | · | · | · | ·

Nos. 4 through 13 from above:
# | mol | UCH37 inh | T cruzi repl | Ecoli growth | FGF22 binding | AF4-AF9 inh | Bfl-1 A1 inh | Ecoli rRNA inh RFP | Ecoli rRNA inh OD600 | Ecoli rRNA inh
4 | CCCCCC(=O)O[C@]1(C(C)=O)CCC2C3CCC4=CC(=O)CC[C@]4(C)C3CC[C@@]21C (stereo partly specified) | · | · | 0.69 | · | · | · | · | · | ·
5 | Cc1ccsc1C=CC1=NCCCN1C | · | · | 0.66&0.7 | · | · | · | · | · | ·
6 | CC(=O)N1CC(O)CC1C(=O)O (stereo unspecified) | · | · | 0.67 | · | · | · | · | · | ·
7 | CC(=O)O[C@]1(C(C)=O)CCC2C3C=C(Cl)C4=CC(=O)C5CC5[C@]4(C)C3CC[C@@]21C (stereo partly specified) | · | · | 0.71 | · | · | · | · | · | ·
8 | CC=C(C)C(=O)OC1c2cc3c(c4c2[C@@]2(CO4)C(=O)C(OC)=C(OC)C=C2CC(C)C1C)OCO3 (stereo partly specified) | · | · | 0.67 | · | · | · | · | · | ·
9 | COc1c(O)cc2c(c1O)[C@@H]1OC(CO)C(O)C(O)[C@H]1OC2=O (stereo partly specified) | · | · | · | i | -1.6 | · | · | · | ·
10 | COc1ccc(-n2[nH]c3c(cnc4ccccc43)c2=O)cc1 | · | · | · | i | 0.4 | · | -4.5 | -1 | -4
11 | Cc1cc(C)cc(OCC2CNC(=O)O2)c1 (stereo unspecified) | · | · | · | i | 1.4 | · | 0.2 | 18 | 17
12 | Nc1c2c(nc3ccccc13)CCCC2O (stereo unspecified) | · | · | · | i | 0.4 | · | 0.5 | 14 | 4
13 | O=C1Cc2c([nH]c3ccc([N+](=O)[O-])cc23)-c2ccccc2N1 | · | · | · | i | 0.3 | · | 0.1 | -24 | -13

Screening results: PubChem BioAssay, several laboratories
